RGS16-Gao – regulators of human RGS16-Galphao interaction; bead-based flow cytometry RGS16-Galphao binding, fluorescence; actives lie on both sides; actives 0.38% (n = 220,000); binding response (% of control), % at 10 µM;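 active = below 25% or above 175%, edge rows of some plates excepted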;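 also: Galphao activated by GDP with aluminum fluoride before binding; 100% = wells without compound and 0% = beads without RGS; some results beyond the cut were filed as inactive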
Target sequence (O15492 whole entry, looked up): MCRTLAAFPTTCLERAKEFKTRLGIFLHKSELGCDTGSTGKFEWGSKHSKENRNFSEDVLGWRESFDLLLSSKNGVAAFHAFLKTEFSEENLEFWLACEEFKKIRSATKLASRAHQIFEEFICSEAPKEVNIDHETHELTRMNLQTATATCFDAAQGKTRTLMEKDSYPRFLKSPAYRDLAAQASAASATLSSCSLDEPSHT
Target sequence (P09471 whole entry, looked up): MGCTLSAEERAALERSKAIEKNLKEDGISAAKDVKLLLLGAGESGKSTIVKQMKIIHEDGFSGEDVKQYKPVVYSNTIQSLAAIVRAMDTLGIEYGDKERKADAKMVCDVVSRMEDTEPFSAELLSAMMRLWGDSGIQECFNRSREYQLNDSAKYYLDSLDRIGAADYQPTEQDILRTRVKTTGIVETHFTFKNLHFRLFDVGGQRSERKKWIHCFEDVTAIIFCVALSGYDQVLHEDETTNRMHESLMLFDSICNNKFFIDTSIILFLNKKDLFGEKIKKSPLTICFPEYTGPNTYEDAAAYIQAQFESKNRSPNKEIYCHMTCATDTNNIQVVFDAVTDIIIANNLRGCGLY
GALR2 agonist – agonists of human galanin receptor 2 (GALR2) | GALR2-expressing cells, agonist activation read-out | activation, %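 (tested at 5 µM)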 | actives 0.48% (n = 140,000) | O43603 | AID 803;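 active = above mean plus 3 SD of all compounds, about 5% in these data, not always enough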;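 also: 0% = vehicle buffer wells and 100% = reference agonist at full effect; tested in CHO reporter cells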
Target sequence (O43603 whole entry, looked up): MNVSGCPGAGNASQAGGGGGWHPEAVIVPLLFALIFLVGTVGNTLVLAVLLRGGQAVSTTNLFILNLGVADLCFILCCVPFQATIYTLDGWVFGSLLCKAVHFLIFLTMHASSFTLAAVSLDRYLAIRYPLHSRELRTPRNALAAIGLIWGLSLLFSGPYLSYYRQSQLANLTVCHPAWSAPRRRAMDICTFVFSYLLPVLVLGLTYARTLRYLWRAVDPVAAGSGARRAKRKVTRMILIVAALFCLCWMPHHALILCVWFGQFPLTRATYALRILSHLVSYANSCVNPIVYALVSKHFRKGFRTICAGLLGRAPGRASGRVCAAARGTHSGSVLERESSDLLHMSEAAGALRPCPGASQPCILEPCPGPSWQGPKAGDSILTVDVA
PKD1 inh – blocks activity of human protein kinase D1 | Q15139 | actives 0.056% (n = 200,000) | PKD1 kinase fluorescence polarization assay | AID 797 | inhibition, %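 (about 10 µM by stock and volumes)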;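 active = inhibition of 50% or more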;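 also: controls were vehicle for no effect and a reference inhibitor for full effect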
HSV replic up – HSV replication enhancement; actives 0.005% (n = 220,000); HSV replication augmentation in cells, fold increase; maximum fold increase; AID 1956;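 active = peak rise of 1.5-fold or more in the series; inconclusive = self-fluorescent or not available for retest; tested in PC3 cells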;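 also: first round at 10 µM; read as green reporter fluorescence; hits show the peak of a series up to 25 µM; 1 = signal of infected wells without compound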
Insulin prom inh – TRM-6 insulin promoter activity inhibition; actives 0.9% (n = 130,000); inhibition, % at 2 µM; AID 1273; TRM-6 cells (human fetal islet line), insulin promoter-eGFP reporter, imaging; reporter expression induced with tamoxifen;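 active = inhibition above the mean plus 3 SD, with well images judged a real hit on visual review, cut at about 60% in these data, passing the limit was not always enough; inconclusive = inhibition over the cutoff but images rejected on review; inactive = inhibition not above the cutoff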
Insulin prom inh cell count – recorded beside Insulin prom inh, whose call it bears; normalized cell count, %; measured here: cell count, toxicity; reference of the scale not given here;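 cells exposed to compound for 48 h; stained nuclei by imaging scaled within each plate; lower means fewer cells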
HSV replic up primary fold – recorded beside HSV replic up, whose call it bears; fold increase; compound at 10 µM; measured here: primary screen fold increase 10 uM; tested in PC3 cells;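 GFP signal in the first replicate; 1 = infected wells without compound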
Starred values were filed as active, the others as inactive; i = inactive; u = inconclusive; x = not tested or not shown; & = joins results of further samples. A portion of the library; the hit share may differ from the screen's.

SMILES | RGS16-Gao | GALR2 agonist | PKD1 inh | HSV replic up | HSV replic up primary fold | Insulin prom inh | Insulin prom inh cell count
COc1cc2c(cc1OC)[C@@]13CCN4CC5=CCO[C@H]6CC(=O)N2[C@H]1[C@H]6[C@H]5C[C@H]43 | 106 | -1.5 | 0 | i | 0.82 | -59 | 77
Cc1nn(Cc2ccc(Cl)cc2Cl)c(Cl)c1C(=O)Nc1ccc(OC(F)F)cc1 | 107 | 0.6 | 0 | i | 0.86 | -3 | 117
CN(C)C(=O)Oc1ccc(-c2cn3cc(C(F)(F)F)ccc3n2)cc1 | 100 | 0.0 | 3 | i | 0.74 | -8 | 119
O=c1[nH]c(=S)n(CCC2=CCCCC2)c(O)c1C=NCCCn1ccnc1 | 87 | -3.1 | 3 | i | 0.82 | -12 | 125
Cc1cc(C(=O)N=Nc2c(O)n(C)c3ccccc23)c(C)o1 | 130 | -0.7 | 0 | i | 1 | -31 | 100
CC(C)COc1ccc(C2(C#N)CC[N+](C)(C)CC2)cc1 | 97 | -1.9 | -3 | i | 1.2 | 21 | 72
CNCCc1nc(N)n[nH]1 | 106 | -0.7 | -10 | i | 1 | -26 | 88
CCCCn1c(O)c(C(C)=NCCc2ccccc2)c(=O)[nH]c1=O | 98 | 0.2 | -3 | i | 0.96 | -42 | 134
O=[N+]([O-])c1ccc(N2CCNCC2)cc1Sc1ccccn1 | 90 | -0.8 | -8 | i | 1 | 21 | 120
O=C(O)c1cccc2nc3ccccc3nc12 | 106 | x | -1 | i | 0.65&1 | x | x
Cc1ccccc1-n1c(O)c(C=Nc2ccc(N(C)C)cc2)c(=O)[nH]c1=O | 98 | -0.9 | -9 | i | 0.75 | -46 | 91
O=C(NCc1ccccn1)c1ccccc1Cl | 86 | -1.4 | -5 | i | 0.96 | -45 | 78
C=CCN1C(=O)NC(=O)/C(=C/c2cnc(SC)nc2)C1=O | 96 | -3.7 | 2 | i | 0.95 | 15 | 138
CC/C(=C\C=C\[C@@H]1C=C[C@@H]2CCC[C@H]2[C@@H]1C(=O)c1ccc[nH]1)[C@@H]1O[C@@H]([C@@H](C)C(=O)O)CC[C@@H]1C | 62 | 1.2 | -3 | i | 0.57 | -20 | 152
CN(C)C(=O)Oc1cccc2c(OC(=O)N(C)C)cccc12 | 75 | -2.4 | 4 | i | 1 | 10 | 139
COc1ccc(CC[n+]2cc(/N=C(\C)[O-])on2)cc1OC | 103 | -1.9 | -6 | i | 0.86 | 62 | 173
CCN1C(=O)/C(=C\c2ccc([N+](=O)[O-])s2)C(=O)NC1=S | 96 | x | 0 | u | x | -60 | 129
O=C(CNS(=O)(=O)c1cccs1)N1CCC2(CC1)OCCO2 | 102 | -1.0 | 1 | i | 1.1 | 0 | 98
Cc1cc(C)cc(N2C(=O)NC(=O)/C(=C\c3cc(C)n(C)c3C)C2=O)c1 | 100 | x | 4 | i | 1 | x | x
Cc1ccc(-n2c(-c3cccs3)nc3ccccc3c2=O)cc1 | 102 | -2.0 | 3 | x | x | x | x
Cc1ccccc1OCCCn1cc(C(=O)C(=O)N2CCOCC2)c2ccccc21 | 94 | x | -3 | i | 0.9 | x | x
COc1cc2c(cc1OC)CC[N+](C)=C2 | 102 | x | 4 | i | 0.72 | x | x
C[C@]12CCC(=O)C=C1CCC1C2CC[C@@]2(C)C1CC[C@@]2(O)CC#N (stereo partly drawn) | 119 | -0.3 | -2 | i | 0.74 | x | x
CC(=O)NN1C(=O)c2ccccc2NC1c1cccnc1 (stereo not drawn) | 104 | x | -10 | i | 0.82 | -71 | 140
Cn1cc2c([N+](=O)[O-])cc([N+](=O)[O-])cc2n1 | 98 | x | -3 | i | 0.86 | x | x

13 of the compounds above, with values under each structure.
Every second line gives: RGS16-Gao	GALR2 agonist	PKD1 inh	HSV replic up	HSV replic up primary fold	Insulin prom inh	Insulin prom inh cell count
C=CCN1C(=O)NC(=O)/C(=C/c2cnc(SC)nc2)C1=O
    96	-3.7	2	i	0.95	15	138
CC/C(=C\C=C\[C@@H]1C=C[C@@H]2CCC[C@H]2[C@@H]1C(=O)c1ccc[nH]1)[C@@H]1O[C@@H]([C@@H](C)C(=O)O)CC[C@@H]1C
    62	1.2	-3	i	0.57	-20	152
CN(C)C(=O)Oc1cccc2c(OC(=O)N(C)C)cccc12
    75	-2.4	4	i	1	10	139
COc1ccc(CC[n+]2cc(/N=C(\C)[O-])on2)cc1OC
    103	-1.9	-6	i	0.86	62	173
CCN1C(=O)/C(=C\c2ccc([N+](=O)[O-])s2)C(=O)NC1=S
    96	x	0	u	x	-60	129
O=C(CNS(=O)(=O)c1cccs1)N1CCC2(CC1)OCCO2
    102	-1.0	1	i	1.1	0	98
Cc1cc(C)cc(N2C(=O)NC(=O)/C(=C\c3cc(C)n(C)c3C)C2=O)c1
    100	x	4	i	1	x	x
Cc1ccc(-n2c(-c3cccs3)nc3ccccc3c2=O)cc1
    102	-2.0	3	x	x	x	x
Cc1ccccc1OCCCn1cc(C(=O)C(=O)N2CCOCC2)c2ccccc21
    94	x	-3	i	0.9	x	x
COc1cc2c(cc1OC)CC[N+](C)=C2
    102	x	4	i	0.72	x	x
C[C@]12CCC(=O)C=C1CCC1C2CC[C@@]2(C)C1CC[C@@]2(O)CC#N (stereo partly drawn)
    119	-0.3	-2	i	0.74	x	x
CC(=O)NN1C(=O)c2ccccc2NC1c1cccnc1 (stereo not drawn)
    104	x	-10	i	0.82	-71	140
Cn1cc2c([N+](=O)[O-])cc([N+](=O)[O-])cc2n1
    98	x	-3	i	0.86	x	x

Next results follow.
SMILES | RGS16-Gao | GALR2 agonist | PKD1 inh | HSV replic up | HSV replic up primary fold | Insulin prom inh | Insulin prom inh cell count
CCc1nc2ccccc2c(=O)n1-c1cccc(OC)c1 | 107 | -1.0 | -7 | i | 1.1 | -14 | 156
Cc1c(N=Nc2c(O)[nH]c(=O)[nH]c2=O)c(=O)n(-c2ccccc2)n1C | 99 | x | -6 | i | 1 | x | x
COC(=O)C(O)(c1ccc(NC(=O)Oc2ccccc2)cc1)C(F)(F)F (stereo not drawn) | 101 | 0.3 | 12 | i | 1.1 | -6 | 102
NCC(O)c1ccc(O)cc1 (stereo not drawn) | 180 | -1.1 | 6 | i | 0.9 | 29 | 104
Cn1c(O)c(C(c2ccncc2)c2c(O)n(C)c(=S)n(C)c2=O)c(=O)n(C)c1=S | 104 | -2.5 | -5 | i | 0.77 | 36 | 171
COc1cccc(NP(=O)(Oc2ccccc2Cl)Oc2ccccc2Cl)c1 | 102 | -1.8 | 0 | i | 1.1 | x | x
Cc1ccc(-c2nc3ccccc3c(=O)n2-c2ccc(O)cc2)cc1 | 104 | x | 10 | i | 1 | -20 | 98
CC1(C)CN2C(c3ccc(Cl)cc3)N2C1 (stereo not drawn) | 105 | -2.2 | -1 | i | 0.97 | -19 | 141
c1ccc2c(c1)CSc1ccccc1C2C1=NCCN1 (stereo not drawn) | 104 | 0.1 | 8 | x | x | x | x
O=C(O)CSC(=S)N1CC2CC(C1)c1cccc(=O)n1C2 (stereo not drawn) | 49 | x | -4 | i | 0.99 | x | x
O=C(c1cc(-c2ccc(Cl)cc2)n(-c2ccc(Cl)cc2Cl)n1)N1CCOCC1 | 99 | -0.9 | -7 | i | 1.1 | -77 | 102
COc1cc2occc2c2oc(=O)ccc12 | 95 | -0.2 | 7 | i | 0.84 | 33 | 140
CN(C)CCCN=Cc1c(O)n(CCc2ccccc2)c(=O)[nH]c1=O | 119 | -0.2 | -4 | i | 1.2 | 7 | 83
Cc1ccc(C)c(Cn2c(C(=O)O)c(C=O)c3ccccc32)c1 | 100 | x | -8 | i | 0.93 | -53 | 91
CCN(CC)C(=O)c1ccc(NC(=O)c2cc(-n3cnnc3)ccc2Cl)cc1 | 95 | -1.9 | 6 | i | 1.1 | 87* | 45*
CCCC[N+]12CCC(CC1)C(C(=O)c1cccs1)C2 (stereo not drawn) | 103 | -0.4 | 0 | i | 0.86 | -6 | 157
O=C1NC(=O)C(CCc2ccccn2)(Cc2ccc3c(c2)OCO3)C(=O)N1CCc1ccccc1 (stereo not drawn) | 101 | -1.6 | -11 | i | 1 | i | 60
CC(=O)NC1CC2CCCC(C1)N2 (stereo not drawn) | 102 | -0.5 | -5 | i | 0.95 | x | x
CCCCOP(=O)(OCCCC)/C(C#N)=C(/C)O | 102 | 0.0 | -3 | i | 0.94 | 28 | 125
Cc1ccc(C)c(NC(=S)NCCc2cnc[nH]2)c1 | 102 | x | x | i | 0.93 | x | x
CCOC(=O)C1(CCCc2ccccc2)CCN(C2CCC2)CC1 | 104 | x | 4 | i | 1.2 | x | x
CCn1ccnc1CN1CCCC(C(=O)c2ccc(OC)cc2OC)C1 (stereo not drawn) | 93 | x | 2 | i | 1.1 | -22 | 100
Cc1nc2ccccc2c(=O)n1-n1cnnc1 | 95 | -0.5 | -9 | x | x | x | x
COC(=O)C[C@]1(C(=O)OC)CN(C#N)N(c2ccc(Cl)cc2)C12c1ccccc1-c1ccccc12 | 97 | -3.2 | -4 | i | 0.31 | -142 | 7
COc1ccc(O)c2c(=O)c3c(OC)cc4c(c3oc12)C1C=COC1O4 (stereo not drawn) | 103 | x | x | i | 0.73 | x | x
Next part:
SMILES | RGS16-Gao | GALR2 agonist | PKD1 inh | HSV replic up | HSV replic up primary fold | Insulin prom inh | Insulin prom inh cell count
O=C(Nc1ccccc1)Oc1ccccc1 | 101 | -2.9 | -4 | i | 0.82 | -14 | 113
CN1C(=O)C(=Cc2ccc(Sc3ccccc3)o2)C(=O)N(C)C1=O | 71 | x | 6 | i | 1.2 | -29 | 123
Cc1cc(C=C2C(=O)N(C)C(=S)N(C)C2=O)c(C)n1C1CCCCC1 | 53 | -1.0 | 2 | u | x | 0 | 117
CCCCCCn1c(=O)c(C(=O)Nc2c(C)n(C)n(-c3ccccc3)c2=O)c(O)c2ccccc21 | 99 | x | x | i | 1 | x | x
NNCc1cccc(O)c1 | 100 | x | x | i | 0.76 | x | x
Cc1oc(-c2ccc(F)cc2F)nc1CN1C[C@@H]2C[C@@H](C1)c1cccc(=O)n1C2 | 98 | x | -5 | i | 1.1 | x | x
CN(C)CC1CCCCC1OC(=O)c1ccc(Cl)c(Cl)c1 (stereo not drawn) | 105 | 0.0 | -4 | i | 0.92 | 26 | 118
O=C1NC(=S)N(C2CC2)C(=O)/C1=C/c1ccc2c(c1)CCN2CCCCl | 98 | -2.0 | -10 | i | 1 | 12 | 102
C=C(C=O)C[C@@H]1C[C@H](O)C2OC3C[C@]4(C)OC5/C=C\CC6OC7C(CC=CCC6OC5CCCC4OC3CC2O1)OC1CC2OC3CC(=O)OC3C[C@@H](C)C[C@@]2(C)OC1C[C@@H]7C (stereo partly drawn) | 103 | x | x | i | 0.44 | x | x
Clc1ccc2c(N3CCNCC3)ccnc2c1 | 169 | -1.0 | -1 | i | 1 | -11 | 73
CC(Cc1ccccc1)[n+]1cc(/N=C(\[O-])N(C)C)on1 (stereo not drawn) | 98 | -3.2 | -6 | x | x | -7 | 84
CCn1c(=O)cc(OCC(=O)N2CCC3(CC2)OCCO3)c2ccccc21 | 99 | -3.6 | 0 | i | 1.1 | x | x
Cc1ccnc(-n2c(C)cc(/C=C3\C(=O)NC(=S)N(C)C3=O)c2C)c1 | 97 | -2.3 | -8 | x | x | x | x
Cc1cc(Cl)ccc1OC(C)C(=O)O (stereo not drawn) | 106 | -1.2 | -6 | i | 0.69 | x | x
CN1C(=O)N(C)C(=O)C2(Sc3ccccc3C2=O)C1=O | 83 | -1.2 | 2 | i | 0.89 | x | x
Cc1ccc(C2(O)CCN3CCCCC32)cc1 (stereo not drawn) | 99 | -2.2 | -5 | i | 0.82 | 17 | 66
C[N+]1(C)CCOC(O)(c2ccc(-c3ccc(C4(O)C[N+](C)(C)CCO4)cc3)cc2)C1 (stereo not drawn) | 46 | -1.0 | -1 | i | 0.86 | 10 | 86
Cc1ccc(-n2c(O)c(/C=N/c3ncc(Br)cc3Br)c(=O)[nH]c2=O)cc1 | 101 | x | 1 | i | 1.2 | 6 | 130
CCOc1cc(C(=O)N2CCC3(CC2)OCCO3)cc(OCC)c1OCC | 100 | -1.9 | -3 | i | 0.95 | -39 | 120
CN1CCC2(O)OCCCC2C1 (stereo not drawn) | 100 | x | x | i | 1.2 | x | x
C=CCN1C(=O)NC(=O)/C(=C/c2ccoc2)C1=O | 121 | -1.5 | -10 | u | x | x | x
CCC(=NCCCO)c1c(O)n(-c2ccc(OC)cc2)c(=O)[nH]c1=O | 101 | -1.2 | -17 | i | 0.99 | 17 | 132

Bioassay records (PubChem BioAssay)
